Assay outcomes as filed in PubChem BioAssay.
HSV replic up = enhancers of HSV replication in host cells, fold increase, host cell viability | HSV replication augmentation in cells | maximum fold increase | actives 0.005% (n = 220,000);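 active means peak rise of 1.5-fold or more in the series; tested in PC3 cells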;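 further: first round at 10 µM; read as green reporter fluorescence; hits show the peak of a series up to 25 µM; 1 = signal of infected wells without compound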
PKD1 inh = inhibitors of human PKD1 kinase, biochemical, fluorescence polarization. actives 0.056% (n = 200,000). PKD1 kinase fluorescence polarization assay. AID 797, 2007. inhibition, %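 (about 10 µM by stock and volumes)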. Serine/threonine-protein kinase D1 (Homo sapiens), Q15139;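 active means inhibition of 50% or more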;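 further: controls were vehicle for no effect and a reference inhibitor for full effect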
Target sequence (Q15139 whole entry, looked up): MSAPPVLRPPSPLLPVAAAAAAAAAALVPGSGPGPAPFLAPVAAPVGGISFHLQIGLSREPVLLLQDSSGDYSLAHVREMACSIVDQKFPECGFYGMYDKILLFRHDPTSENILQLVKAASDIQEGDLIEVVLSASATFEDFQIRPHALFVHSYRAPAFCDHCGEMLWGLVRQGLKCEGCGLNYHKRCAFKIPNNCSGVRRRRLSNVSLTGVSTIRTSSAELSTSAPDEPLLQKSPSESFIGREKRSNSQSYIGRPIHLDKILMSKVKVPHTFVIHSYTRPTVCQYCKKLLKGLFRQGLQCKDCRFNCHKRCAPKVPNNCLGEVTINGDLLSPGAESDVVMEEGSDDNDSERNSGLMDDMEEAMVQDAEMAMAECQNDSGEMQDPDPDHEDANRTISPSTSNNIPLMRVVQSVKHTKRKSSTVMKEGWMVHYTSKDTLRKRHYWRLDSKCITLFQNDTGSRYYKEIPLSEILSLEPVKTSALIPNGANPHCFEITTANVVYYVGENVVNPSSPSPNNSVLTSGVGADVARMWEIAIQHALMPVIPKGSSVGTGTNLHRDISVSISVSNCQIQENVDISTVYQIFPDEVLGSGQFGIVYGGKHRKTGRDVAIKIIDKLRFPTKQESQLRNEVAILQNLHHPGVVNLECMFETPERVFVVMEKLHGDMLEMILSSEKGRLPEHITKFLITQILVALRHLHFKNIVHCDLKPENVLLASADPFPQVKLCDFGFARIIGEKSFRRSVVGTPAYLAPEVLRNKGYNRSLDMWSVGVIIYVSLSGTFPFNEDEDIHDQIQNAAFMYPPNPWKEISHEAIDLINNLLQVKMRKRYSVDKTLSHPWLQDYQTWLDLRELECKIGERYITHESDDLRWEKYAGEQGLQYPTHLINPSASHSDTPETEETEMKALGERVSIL
GALR2 agonist = GALR2 receptor agonists, primary screen, cell-based; GALR2-expressing cells, agonist activation read-out; actives 0.48% (n = 140,000); AID 803, 2007; Galanin receptor type 2 (Homo sapiens), O43603; activation, %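 (tested at 5 µM)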;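 active means above mean plus 3 SD of all compounds, about 5% in these data, not always enough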;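 further: 0% = vehicle buffer wells and 100% = reference agonist at full effect; tested in CHO reporter cells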
RGS16-Gao = modulators of RGS16 binding to Galphao, primary screen, biochemical, human proteins, multiplexed bead flow cytometry | Regulator of G-protein signaling 16 (Homo sapiens) + Guanine nucleotide-binding protein … | bead-based flow cytometry RGS16-Galphao binding, fluorescence; actives lie on both sides | binding response (% of control), % at 10 µM | actives 0.38% (n = 220,000) | AID 1441, 2008;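 active means below 25% or above 175%, edge rows of some plates excepted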;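 further: Galphao activated by GDP with aluminum fluoride before binding; 100% = wells without compound and 0% = beads without RGS; some results beyond the cut were filed as inactive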
INS promoter inh = inhibitors of insulin promoter-driven GFP, primary screen, imaging, TRM-6 cells (human fetal islet line), eGFP reporter, cell count; reporter expression induced with tamoxifen; inhibition, % at 2 µM; actives 0.9% (n = 130,000); AID 1273, 2008;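 active means inhibition above the mean plus 3 SD, with well images judged a real hit on visual review, cut at about 60% in these data, passing the limit was not always enough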
INS promoter inh cell count = recorded beside INS promoter inh, whose call it bears; normalized cell count, %; measured here: cell count, toxicity; reference of the scale not given here;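 cells exposed to compound for 48 h; stained nuclei by imaging scaled within each plate; lower means fewer cells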
HSV replic up primary fold = recorded beside HSV replic up, whose call it bears; fold increase; compound at 10 µM; measured here: primary screen fold increase 10 uM; tested in PC3 cells;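 GFP signal in the first replicate; 1 = infected wells without compound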
* marks the source's active call; other numbers are inactive results; i = inactive; · = not tested or not shown.

SMILES	HSV replic up	HSV replic up primary fold	PKD1 inh	GALR2 agonist	RGS16-Gao	INS promoter inh	INS promoter inh cell count
O=C(CSc1nc2ccccc2c(=O)n1CCCN1CCOCC1)Nc1ccc2c(c1)OCO2	i	0.92	-6	·	99	·	·
CCCSc1nc(C)c2cc(C)cc(C)c2n1	i	0.97	-4	-4.5	93	-15	119
CCC(=O)Nc1nnc(-c2ccco2)o1	i	0.95	16	-1.4	104	·	·
CC1CN(S(=O)(=O)c2ccc(NC(=O)CCN3C(=O)c4ccccc4C3=O)cc2)CC(C)O1 (configuration not stated)	·	·	-4	-1.7	108	4	109
COc1ccc2c(c1)CCc1c(C(=O)NCc3ccc(Cl)cc3)noc1-2	i	0.93	-1	-1.0	86	42	102
O=C1CC2(CCCCC2)Oc2ccc(OCC(=O)N3CCOCC3)cc21	i	0.88	1	-0.6	98	·	·
CCc1cccc2c(C(=O)CSc3nnc(-c4ccncc4)n3C)c[nH]c12	i	0.86	0	-2.0	99	-28	94
O=C(COC(=O)CCCN1C(=O)c2cccc3cccc(c23)C1=O)Nc1cccc(C(F)(F)F)c1	i	0.96	-8	-0.9	103	7	177
COC(=O)c1sc(NC(=O)c2ccc(Cn3cc(Cl)cn3)o2)c(C#N)c1C	i	0.96	-12	-0.9	56	53	84
Oc1cccc(/C=N/N2CCN(c3ccccn3)CC2)c1	i	0.78	·	·	83	·	·
C=CCn1c(SCC(=O)Nc2ccccc2C)nc2sc(C)c(C)c2c1=O	i	1	-5	-0.3	100	-147	133
CCOc1ccccc1NC(=O)COC(=O)C1CC1	i	1.2	2	·	102	·	·
CN(C)S(=O)(=O)c1ccc(C(=O)Nc2ccc(CN3CCCC3)cc2)cc1	i	0.94	8	-5.5	104	-6	85
CCOC(=O)C(/C=C(\C#N)C(=O)OCC)=C(/N)N1CCN(c2ccc(OC)cc2)CC1	i	0.99	-3	-0.9	105	14	129
COc1ccc(-c2nc(-c3cccc([N+](=O)[O-])c3O)cc(=O)o2)cc1OC	i	1.2	-10	-0.9	99	-26	102
CCOC(=O)Cn1nc(C)c(NC(=O)CCc2ccc(OC)cc2)c1C	i	0.93	2	·	105	·	·
O=C(O)CC/C(=N/NC(=O)c1cccs1)c1ccccc1	i	0.98	-13	-2.4	105	-15	55
O=C(c1cccn2c(=O)c3ccccc3nc12)N1CCN(Cc2ccc3c(c2)OCO3)CC1	i	0.93	1	0.7	104	-7	115
CC1(C)CC(=O)C(C2c3ccccc3S(=O)(=O)c3ccccc32)C(=O)C1	i	0.96	6	·	99	·	·
CC(=O)Nc1ccc(OCC(O)Cn2c(CO)nc3ccccc32)cc1 (configuration not stated)	i	0.97	-12	·	100	-40	106
COc1ccc(C(=O)NCCc2cn3ccc(C)cc3n2)cc1	i	0.87	-4	-3.0	93	·	·
CCNC(=O)NC(=O)C(C)On1nnc2ccc(S(=O)(=O)N(CC)CC)cc21 (configuration not stated)	i	0.96	-2	0.8	112	-42	83
CC(NC(=S)Nc1ccc(OC(F)F)cc1OC(F)F)C(C)(C)C (configuration not stated)	i	0.87	3	-0.7	97	·	·
CCC(C)(C)NC(=O)C(c1cccn1C)N(C(=O)Cn1nnc2ccccc21)c1ccccc1OC (configuration not stated)	i	0.87	-6	-1.5	24*	-37	161
Cc1ccc(OCC2Cn3c(nc4c3c(=O)[nH]c(=O)n4C)O2)cc1 (configuration not stated)	i	0.74	4	-1.1	99	43	104
COc1ccc(OC)c(/C=C/C(=O)N2C(=O)c3cccc(N)c3C2=O)c1	i	0.92	0	0.8	102	-47	54
O=C(Nc1ccc(N2CCCCC2)cc1)c1cccnc1	i	0.98	3	-1.7	106	10	100
COC(=O)c1cc(NC(=O)c2nccnc2C(=O)O)cc(C(=O)OC)c1	i	0.92	-21	-0.9	101	·	·
Nc1nc(-c2cccnc2)nn1S(=O)(=O)c1ccccc1	i	1.1	-3	-1.1	102	-5	178
O=C(NCc1cccs1)C(=O)NCC(c1ccco1)N1CCN(c2ccccc2F)CC1 (configuration not stated)	i	0.97	-3	·	95	33	100
N#Cc1c(-c2cccs2)cc(-c2cccs2)[nH]c1=O	i	0.97	·	·	95	·	·
Cc1cc(Nc2cccc([N+](=O)[O-])c2)c2ccccc2n1	i	0.85	3	·	105	·	·
COc1cccc(C2=NOC(C(=O)Nc3cccnc3Cl)C2)c1OC (configuration not stated)	i	1	-7	·	104	·	·
Cc1cn(S(=O)(=O)c2cc(Br)ccc2Br)cn1	i	0.88	4	-0.5	107	·	·
Cc1ccc(-c2nc(NC(=O)CSc3ncn[nH]3)ns2)cc1	i	1	·	·	88	·	·
CC(=O)Nc1ccc(OCC(O)Cn2nc(C)nc2C)cc1 (configuration not stated)	i	0.9	-17	-0.9	105	66	93
CCn1c(C)nc2cc(C(=O)N/N=C/c3ccc(OC)c(O)c3)ccc21	i	1	-4	0.1	108	4	120
Cc1cc(C)c2oc(C(=O)NCCc3ccc(S(N)(=O)=O)cc3)cc(=O)c2c1	i	1	·	·	100	·	·
CNc1nc(SC)nc(N(C#N)CC(=O)OC)n1	·	·	-5	-2.5	78	-372	57
O=C(NC1=NCCS1)c1ccc(Cl)s1	i	0.99	-7	-0.7	85	-4	139
COc1ccc(-c2noc(CSc3nnc(-c4ccncc4)n3-c3ccc(F)cc3)n2)cc1OC	i	0.95	-1	-0.9	91	16	145
C=C(C)C1CC=C(CN2CC(C)OC(C)C2)CC1 (configuration not stated)	i	1	2	-2.3	97	21	121
Cc1cc(C)n(-c2cc(-c3ccccc3)nc(C)n2)n1	i	0.86	-4	-1.1	97	-152	73
Nn1c(SCC(=O)Nc2nccs2)nncc1=O	i	0.98	11	·	103	·	·
COc1cc(-c2nnc3n(CCc4ccccc4)c(=O)c4ccccc4n23)cc(OC)c1OC	i	0.99	2	-0.5	78	50	157
CCN(CC(=O)Nc1ccc(NC(C)=O)cc1)C(=O)COc1ccc(C(=O)c2ccccc2)cc1	i	0.91	-2	-1.7	102	·	·
O=C(Nc1ccccc1)c1cnc2n(c1=O)CCS2	i	0.96	-12	-1.0	100	·	·
Cc1ccc2nc(-c3ccccc3)cc(C(=O)NCC3CCCO3)c2c1 (configuration not stated)	i	0.87	·	·	97	·	·
C=C(C(=O)c1ccccc1)C(C)C(=C)C(=O)c1ccccc1	i	0.74	3	-2.2	115	·	·
COc1ccc(S(=O)(=O)Nc2ccccc2C(=O)NC(C)(C)C)cc1OC	i	0.87	-7	0.5	102	·	·
O=C(CSc1ncnc2ccccc12)Nc1cc(S(=O)(=O)N2CCCCC2)ccc1Cl	i	0.91	-10	-1.0	55	-69	69
CCOc1ccccc1-n1c(SCC(=O)N2CCCC2)nnc1-c1ccc(O)cc1	i	1	1	-2.0	104	-6	128
COc1nc(-c2ccc(Cl)cc2)ccc1-c1noc(-c2ccco2)n1	i	0.92	-4	-2.2	97	-17	107
Cc1ccc2[nH]c3c(c2c1)CN(C(=O)CN1CCN(Cc2ccc4c(c2)OCO4)CC1)CC3	i	0.85	-8	-2.0	102	·	·
N#CCSc1nc2cc(C(=O)N3CCC(C(N)=O)CC3)ccc2c2nc3ccccc3n12	i	0.82	-3	0.5	97	·	·
CC(C)(C)NC(=O)COc1ccc(CNCc2cccnc2)cc1	i	0.86	0	·	103	·	·
NC(=O)C(c1cccc(Cl)c1)c1ncc(C(F)(F)F)cc1Cl (configuration not stated)	i	0.87	-4	-0.7	103	10	68
COc1cc2[nH]c(=O)n(Cc3ccc(C(=O)NC4CCCC4)cc3)c(=O)c2cc1OC	i	0.93	-2	-2.1	106	19	103
O=C(Cc1ccccc1)Nc1ccc(NC(=O)c2cccc(Cl)c2)cc1	i	1	-5	3.8	99	·	·
CCOc1ccccc1N1CCN(C(=O)CC(C)(C)C)CC1	i	0.98	-4	·	104	·	·

Ordered by the number under PKD1 inh (descending): six from the list above
smiles,PKD1 inh
COc1cc(-c2nnc3n(CCc4ccccc4)c(=O)c4ccccc4n23)cc(OC)c1OC,2
COc1ccc(-c2noc(CSc3nnc(-c4ccncc4)n3-c3ccc(F)cc3)n2)cc1OC,-1
COc1cc2[nH]c(=O)n(Cc3ccc(C(=O)NC4CCCC4)cc3)c(=O)c2cc1OC,-2
N#CCSc1nc2cc(C(=O)N3CCC(C(N)=O)CC3)ccc2c2nc3ccccc3n12,-3
NC(=O)C(c1cccc(Cl)c1)c1ncc(C(F)(F)F)cc1Cl (configuration not stated),-4
COc1ccc(S(=O)(=O)Nc2ccccc2C(=O)NC(C)(C)C)cc1OC,-7

The main list resumes with the seven entries that preceded the break.
SMILES	HSV replic up	HSV replic up primary fold	PKD1 inh	GALR2 agonist	RGS16-Gao	INS promoter inh	INS promoter inh cell count
Cc1ccc2[nH]c3c(c2c1)CN(C(=O)CN1CCN(Cc2ccc4c(c2)OCO4)CC1)CC3	i	0.85	-8	-2.0	102	·	·
N#CCSc1nc2cc(C(=O)N3CCC(C(N)=O)CC3)ccc2c2nc3ccccc3n12	i	0.82	-3	0.5	97	·	·
CC(C)(C)NC(=O)COc1ccc(CNCc2cccnc2)cc1	i	0.86	0	·	103	·	·
NC(=O)C(c1cccc(Cl)c1)c1ncc(C(F)(F)F)cc1Cl (configuration not stated)	i	0.87	-4	-0.7	103	10	68
COc1cc2[nH]c(=O)n(Cc3ccc(C(=O)NC4CCCC4)cc3)c(=O)c2cc1OC	i	0.93	-2	-2.1	106	19	103
O=C(Cc1ccccc1)Nc1ccc(NC(=O)c2cccc(Cl)c2)cc1	i	1	-5	3.8	99	·	·
CCOc1ccccc1N1CCN(C(=O)CC(C)(C)C)CC1	i	0.98	-4	·	104	·	·
CC(C)[C@H](NC(=O)c1ccccc1)C(=O)OCC(=O)NCc1ccc(F)cc1	i	1	0	·	90	-5	63
CCCOc1cccc(C2C(C(=O)c3cccs3)=C(O)C(=O)N2Cc2cccnc2)c1 (configuration not stated)	i	0.92	·	·	102	·	·
CCn1nnnc1SCC(=O)N1CCN(c2ccccc2)CC1	i	0.98	·	·	110	·	·
C(=C\c1nc2ccccc2[nH]1)/c1ccccc1	i	0.84	-1	-0.8	95	93*	165*
Cc1ccccc1NC(=O)C12CC3CCC1(C)C3(C)CO2 (configuration not stated)	i	0.97	1	·	104	·	·
Cc1c(C(=O)N2CCCCC2)oc2ccc(S(=O)(=O)N3CC(C)CC(C)C3)cc12 (configuration not stated)	i	0.77	-8	-1.8	83	-71	125
CC1CCN(C(=O)CSc2nc3ccccc3c(=O)n2Cc2ccc3c(c2)OCO3)CC1	i	1.4	-3	-0.8	105	3	103
O=C1[C@@H]2C(c3ccc(F)cc3)=NO[C@@H]2C(=O)N1Cc1ccccc1	i	1.3	·	·	100	·	·
Cc1ccc2oc(=O)c3cc(C(=O)N4CCN(C(=O)c5ccco5)CC4)sc3c2c1	·	·	-7	·	105	·	·
Cc1ccc(NC(=O)Cc2ccc(Cl)c(Cl)c2)cc1S(=O)(=O)N(C)C	·	·	-4	-1.2	110	8	109

Fetched one by one from the list above, 3 records:
SMILES	HSV replic up	HSV replic up primary fold	PKD1 inh	GALR2 agonist	RGS16-Gao	INS promoter inh	INS promoter inh cell count
Cc1ccc(NC(=O)Cc2ccc(Cl)c(Cl)c2)cc1S(=O)(=O)N(C)C	·	·	-4	-1.2	110	8	109
Cc1ccccc1NC(=O)C12CC3CCC1(C)C3(C)CO2 (configuration not stated)	i	0.97	1	·	104	·	·
CC1CCN(C(=O)CSc2nc3ccccc3c(=O)n2Cc2ccc3c(c2)OCO3)CC1	i	1.4	-3	-0.8	105	3	103
